# High-throughput results from PubChem BioAssay.
# YopH PTP inh – YopH tyrosine phosphatase inhibitors, primary screen, biochemical, fluorescence Ex485/Em525. YopH tyrosine phosphatase [Yersinia enterocolitica]. inhibition, %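 (about 10 µM by stock and volumes)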. 0.16% of 140,000 active. AID 898, 2007;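 active = inhibition of 50% or more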;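 note: controls were vehicle for no effect and minimum signal wells for full effect; inactives centre near -20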
# RecA intein inh – Mtb RecA intein splicing inhibitors, primary screen, biochemical, fluorescence, HTS. Protein RecA (Mycobacterium tuberculosis (strain ATCC 25618 / H37Rv)), P9WHJ3. cell-free RecA intein splicing. inhibition, %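 (about 9 µM by stock and volumes)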. 0.75% of 290,000 active. AID 2221, 2009; in the data active = inhibition above about 30%; inconclusive = no clear call, values can overlap the other calls;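 note: 0% = vehicle wells and 100% = reference inhibitor control wells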
# Target sequence (P9WHJ3 whole entry, looked up): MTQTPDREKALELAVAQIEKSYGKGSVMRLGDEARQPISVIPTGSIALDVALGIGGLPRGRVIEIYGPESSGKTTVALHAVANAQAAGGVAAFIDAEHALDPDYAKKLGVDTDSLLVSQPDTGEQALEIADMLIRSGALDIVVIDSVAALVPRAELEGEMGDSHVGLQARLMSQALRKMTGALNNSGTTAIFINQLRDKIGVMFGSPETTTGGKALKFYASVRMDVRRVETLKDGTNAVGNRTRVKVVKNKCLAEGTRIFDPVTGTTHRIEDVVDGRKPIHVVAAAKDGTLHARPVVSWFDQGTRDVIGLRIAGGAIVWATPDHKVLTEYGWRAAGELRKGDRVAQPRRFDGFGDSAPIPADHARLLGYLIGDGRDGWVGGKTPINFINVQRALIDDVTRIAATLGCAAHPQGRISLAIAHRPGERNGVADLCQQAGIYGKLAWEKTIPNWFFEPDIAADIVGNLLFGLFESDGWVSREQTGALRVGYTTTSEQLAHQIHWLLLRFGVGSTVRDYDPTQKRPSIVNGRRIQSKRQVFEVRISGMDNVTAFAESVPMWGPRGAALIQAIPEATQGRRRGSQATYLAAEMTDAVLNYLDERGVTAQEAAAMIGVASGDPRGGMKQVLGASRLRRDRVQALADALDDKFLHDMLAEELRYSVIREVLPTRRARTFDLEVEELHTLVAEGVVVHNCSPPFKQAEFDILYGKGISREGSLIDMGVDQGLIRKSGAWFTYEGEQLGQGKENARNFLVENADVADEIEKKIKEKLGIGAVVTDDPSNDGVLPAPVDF
# Mtb H37Rv – M. tuberculosis H37Rv growth inhibitors, H37Rv strain (AID 1626) | M. tuberculosis H37Rv growth inhibition; higher % means a stronger effect | inhibition, % at 10 µM; hits with a dose series show IC50 in µM | 0.95% of 220,000 active;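 active = confirmed in a dose series; inconclusive = inhibition above 80% but not taken into the dose series; inactive = below 80% or under 30% at every dose of the series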;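 note: bacteria incubated seven days before Alamar blue readout; 0% = bacteria only wells and 100% = bacteria with antibiotic wells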
# Arbovirus inh – antivirals against arbovirus infection, primary screen, cell-based, full library, 10K replicate subset | 0.37% of 200,000 active | AID 1251, 2008 | arbovirus infection cell-based antiviral screen | inhibition, % at 10 µM;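 active = inhibition from about 30%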;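 note: bluetongue infection of BSR cells; cell survival read as ATP light after 72 h; 0% = infected wells without compound and 100% = uninfected wells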
# Mtb betalactam – beta-lactam sensitization of Mtb H37Rv, H37Rv; M. tuberculosis H37Rv growth with meropenem, percent inhibition; hits of this screen are not shown here; 0.27% of 330,000 active; inhibition, % at 25 µM; AID 434955, 2010;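 active = about 74% or more and at least 40 points above the plate without the antibiotic, then above 30% in a dose series; inconclusive = first-round hits that could not be retested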;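 note: growth measured after seven days incubation then overnight dye step; 0% = bacteria only wells and 100% = bacteria with antibiotic; twin plates without the antibiotic show which effects depend on it; some results filed as inactive read as strong as hits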
# Arbovirus inh repeat – recorded beside Arbovirus inh, whose call it bears; inhibition, %; measured here: 10K subset replicate screen; many hits read low in the repeat;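 first of two repeat runs on a subset; 0% = infected and 100% = uninfected wells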
# Active calls of the source: *; ? = inconclusive; . = not tested or not shown; & = joins results of further samples. Not all compounds are listed; rates above refer to the full screens.
SMILES,YopH PTP inh,RecA intein inh,Mtb H37Rv,Arbovirus inh,Mtb betalactam,others
CCn1ncc(/C=N\NC(=O)COc2cc(C)cc(C)c2)c1C,4,0.3,-4%,-21,0,
c1ccc(CN2OCC3Cn4c(nc5ccccc54)C32)cc1 (stereo not given),.,1.0,-3%,.,5,
O=C(O)CSc1nnc(CNc2ccc(F)cc2)n1-c1ccccc1,.,0.2,-4%,.,-11,
O=S(=O)(N/N=C\c1c(F)cccc1Cl)c1ccc(Cl)cc1,-34,-0.3,2%,-4,-1,
O=C(CN1CCOCC1)c1ccc(Br)cc1,.,-1.5,.,.,-14,
CC1(C)Oc2nc3ccccc3n2/C1=C\C#N,-21,2.4,-11%,-5,-1,
Cc1cccc(CCNC(=O)CCCOc2cc(=O)n(C)c3ccccc23)c1,.,-0.4,2%,-17,1,
Cc1ccc(/C=C(\C#N)c2nn(-c3ccccc3)c(N)c2C#N)cc1,-27,10,4%,-5,0,
Fc1cc(F)c(C2SCCN2C(=S)Nc2cccc(C(F)(F)F)c2)c(F)c1 (stereo not given),.,3.0,5%,.,-4,
O=C(NCc1cccnc1)c1cccc(OC2CCN(Cc3ccc(CO)o3)CC2)c1,.,-0.9,.,.,12,
COc1cc(C2NC(=O)CCC2[N+](=O)[O-])cc(Br)c1OC (stereo not given),.,-1.2,.,.,-5,
CCOC(=O)c1c(NC(=O)c2cccs2)sc2c1CCN(C(=O)OCC)C2,-30,-12,46%,-24,90,
COc1ccc(CNCC(O)COc2ccc(C)cc2[N+](=O)[O-])cc1 (stereo not given),.,0.0,2%,.,-3,
Cc1cccc(-n2c(-c3csc(C(C)C)c3)n[nH]c2=S)c1,2,-0.4,1%,-2,-7,
COc1ccc2c(CC(=O)NC3CCCc4ccccc43)coc2c1 (stereo not given),-43,1.4,1%,9,-6,
CCN(CC)c1ncnc2c1[nH]c1ccccc12,-5,-0.5,5%,1,-5,
COc1ccc(CN2CC(C(=O)NCCc3ccc(C)cc3)CC2=O)cc1 (stereo not given),-48,0.4,-10%,8,.,
CC(=O)NC(CCS(C)(=O)=O)C(=O)Nc1nc(C)cs1 (stereo not given),-7,1.1,-5%,2,5,
COc1ccc(/C=C/C(=O)NCc2c(C)nn(C)c2C)cc1COc1ccc(Br)cc1,-13,0.1,-1%,-10,1,
O=C(CSc1n[nH]c(=O)n1C1CC1)c1ccc(F)cc1,.,0.0,-4%,.,0,
O=C(Nc1ccc(N2C(=O)C3C4C=CC(C4)C3C2=O)cc1)Nc1cccnc1 (stereo not given),29,3.2,-16%,-1,-7,
O=C(O)c1ccccc1C(=O)c1ccc(Br)s1,.,-10,1%,9,-7,
CCCCn1c(N)c(N(CCOC)C(=O)c2cc(S(=O)(=O)N3CCCCC3)ccc2C)c(=O)[nH]c1=O,.,9.5,.,.,-6,
CCOc1cc(CNCc2cccs2)ccc1OCC(=O)NC(C)(C)C,-25,-0.8,-10%,-3,10,
COc1ccc(CNC(=O)Cc2ccc(-c3ccccc3)cc2)cc1OC,.,5.5,.,.,-5,
O=C(COC(=O)c1ccc(F)cc1)Nc1cc(S(=O)(=O)N2CCOCC2)ccc1N1CCCC1,.,-3.1,2%,3,6,
O=C(O)c1ccccc1COc1ccccc1Cl,-20,-0.6,-2%,7,3,
CC1(CCc2ccccc2)NC(=S)N(c2ccc(Cl)cc2)N1 (stereo not given),-18,6.2,?,-35,97,
CCC1SC2=NC(C)=C(C(=O)OC)C(c3ccc(C(=O)OC)cc3)N2C1=O (stereo not given),-39,-2.1,-11%,6,-10,Arbovirus inh repeat=5
Cc1cc(C)c(NC(=O)c2cccc3c2C(=O)N(C2CCCCC2)C3)c(C)c1,.,-7.6,.,.,6,
O=C(CSc1nnc(-c2ccncc2)o1)NCc1ccccc1Cl,-29,-5.5,-6%,-3,3,
COc1cc(C)nc(-c2csc(C)n2)n1,.,-2.3,1%,.,68,
Nc1ccccc1OCP(=O)(c1ccccc1)c1ccccc1,-5,2.0,1%,2,-4,
CC(=O)Nc1ccc(S(=O)(=O)N2C3CCCC2CC(NC(=O)C2CCCCC2)C3)cc1 (stereo not given),-50,-1.5,0%,0,-11,
Nc1c(Br)cc(Br)c(N2CCCC2=O)c1Br,-53,0.0,-3%,-4,-1,Arbovirus inh repeat=6
CCCn1c(SCC(=O)NCc2ccc(Cl)cc2)n[nH]c1=O,.,2.6,5%,12,-7,
CC(=O)NCCCc1nc2ccccc2n1Cc1ccccc1C,-26,.,-3%,-1,-3,
CC(=O)Nc1ccc(Oc2ccccc2)cc1,.,0.6,-6%,.,71,
O=C(Nc1oc2ccccc2c(=O)c1-c1ccc(Br)cc1)c1ccco1,.,3.2,.,.,39,
CCn1c2c(c(=N)c3c1CCC3)CCCC2,.,.,-4%,.,-5,
O=C(CCN1C(=O)C2C3C=CC(C4CC34)C2C1=O)Oc1ccccc1 (stereo not given),.,2.1,1%,3,43,
COc1cc(CC(NC(C)=O)C(=O)NC2CCN(c3c(Cc4ccccc4)c(C)nc4ncnn34)CC2)cc(OC)c1 (stereo not given),-5,0.9,3%,-2,8,
Cc1nc2c(cc1NC(=O)c1ccccc1)nc(C)n2Cc1ccccc1,.,1.4,.,.,1,
CC1CN(O)C2CCc3c(no[n+]3[O-])C12O (stereo not given),-3,-6.7,-3%,3,-1,
CC(=O)c1ccc(OC(=O)c2nc(-c3ccccc3)oc2C)cc1,.,14,.,.,5,
O=C(NC1CCCCC1)C(c1cccs1)N(C(=O)Cc1c[nH]c2ccccc12)c1ccc(F)cc1 (stereo not given),2,1.6,4%,-9,11,
c1ccc(Oc2nc(-c3cccnc3)nc3ccccc23)cc1,.,4.9,8%,.,24,
CCC1CCCCN1CCCNC(=O)c1ccc2c(=O)n(Cc3ccc(OC)cc3)c(=O)[nH]c2c1 (stereo not given),-17,2.0,1%,-36,-3,

# Sorted by heavy-atom count (ascending): some entries from above.
SMILES,YopH PTP inh,RecA intein inh,Mtb H37Rv,Arbovirus inh,Mtb betalactam,others
O=C(O)c1ccccc1COc1ccccc1Cl,-20,-0.6,-2%,7,3,
O=S(=O)(N/N=C\c1c(F)cccc1Cl)c1ccc(Cl)cc1,-34,-0.3,2%,-4,-1,
Cc1ccc(/C=C(\C#N)c2nn(-c3ccccc3)c(N)c2C#N)cc1,-27,10,4%,-5,0,
CCOc1cc(CNCc2cccs2)ccc1OCC(=O)NC(C)(C)C,-25,-0.8,-10%,-3,10,
CCOC(=O)c1c(NC(=O)c2cccs2)sc2c1CCN(C(=O)OCC)C2,-30,-12,46%,-24,90,

# Going on with the list.
SMILES,YopH PTP inh,RecA intein inh,Mtb H37Rv,Arbovirus inh,Mtb betalactam,others
O=C(NC(=S)NNC(=O)c1ccccc1F)c1cccnc1,.,3.6,-1%,.,94,
N/C(=N\OC(=O)c1ccco1)c1cccnc1,.,0.9,4%,-4,-8,
COc1ccc(/C=N/NC(=O)C2c3ccccc3-c3ccccc32)cc1,-28,0.4,4%,-8,-2,
O=C(CCN1CCc2ccccc2C1)Nc1ccc(F)c(F)c1,.,-4.1,11%,.,-5,
COc1ccccc1CNC(=O)C1CCCN(S(C)(=O)=O)C1 (stereo not given),-3,0.3,3%,5,11,
CC(=O)Nc1ccc(NC(C)=O)c(NC2OCC(O)C(O)C2O)c1 (stereo not given),.,-1.0,-8%,.,2,
Cc1noc(C)c1S(=O)(=O)N1CCC(C(=O)N2CCN(C(=O)c3ccco3)CC2)CC1,-11,-0.5,-6%,6,-8,
CCCS(=O)(=O)c1c(S(=O)(=O)CCC)c2c(N)cccn2c1C(=O)c1ccc(F)cc1,-30,8.4,5%,-24,-4,
O=C(COC(=O)c1ccccn1)NCc1ccccc1Cl,-28,23,1%,3,4,
CCN(CC)S(=O)(=O)c1ccc(N2CCN(S(=O)(=O)c3ccc4c(c3)OCCO4)CC2)nc1,-17,-2.4,-4%,3,-2,
COc1ccc(-c2cn3c(C)c(C(=O)N4CCc5ccccc5C4)sc3n2)cc1,.,-7.9,.,-23,89,Arbovirus inh repeat=-10
Cc1c(NC(=S)NC(=O)CCc2ccccc2)c(=O)n(-c2ccccc2)n1C,.,-1.1,6%,1,0,

# Continued; it opens with the four that closed the last part.
SMILES,YopH PTP inh,RecA intein inh,Mtb H37Rv,Arbovirus inh,Mtb betalactam,others
O=C(COC(=O)c1ccccn1)NCc1ccccc1Cl,-28,23,1%,3,4,
CCN(CC)S(=O)(=O)c1ccc(N2CCN(S(=O)(=O)c3ccc4c(c3)OCCO4)CC2)nc1,-17,-2.4,-4%,3,-2,
COc1ccc(-c2cn3c(C)c(C(=O)N4CCc5ccccc5C4)sc3n2)cc1,.,-7.9,.,-23,89,Arbovirus inh repeat=-10
Cc1c(NC(=S)NC(=O)CCc2ccccc2)c(=O)n(-c2ccccc2)n1C,.,-1.1,6%,1,0,
COCc1nnc(NC(=O)c2ccco2)s1,26,-6.9,-10%,-3,1,
CC(C)OC1CCCC(O)C1CC(=O)O (stereo not given),.,-0.9,-6%,.,1,
CSCC[C@H](NS(=O)(=O)c1ccc(C)cc1)C(=O)N1CCC(C(=O)N[C@H](C(=O)O)c2ccccc2)CC1,.,1.5,.,.,-5,
CC(=O)NN(O)C1N(C)C(=O)N(Cc2ccccc2)C1(C)C (stereo not given),.,-4.1,.,.,-5,
O=C(CSc1nc2ccccc2n1S(=O)(=O)c1cccc([N+](=O)[O-])c1)NCCc1ccccc1,-11,1.5,7%,7,7,
Cc1nnc2c(N(C)S(=O)(=O)c3ccccc3)nc3ccccc3n12,.,0.1,.,.,-2,
COc1cc(OC)cc(-c2nc3ccccc3c(=O)n2OC(=O)c2ccc(Br)cc2)c1,-21,-6.0,-6%,15,29,
O=C(NC1Cc2ccccc2C1)c1cc(COc2cccc(C(F)(F)F)c2)on1,.,3.3,.,.,11,
CCOC(=O)C1CCN(c2c(NCCCN(CC)Cc3ccccc3)c(=O)c2=O)CC1,-36,-4.2,5%,1,-9,
C=CCN1C(=O)OC2(CCCCC2)C1(C)O (stereo not given),-32,-4.0,1%,0,-2,
O=C(Cc1ccccc1)N/N=C/C=C/c1cccc([N+](=O)[O-])c1,-12,-2.8,6%,0,1,
CCNC(=O)CC1C(=O)N(CC)C(=S)N1NC(=O)c1ccccc1 (stereo not given),.,0.4,-4%,.,-4,
CC(=O)Nc1ccc(NC(=O)CSCCc2ccccn2)cc1,-21,.,-7%,0,-8,
CC(=O)N1CCN=C1SCc1cccc(C)c1,.,2.9,.,.,2,
CCCCc1ccc(/C=C2\C(=O)ON=C2c2ccccc2)s1,-24,.,46%,4,97,
Cc1nn(-c2ccccc2)c2sc(C(=O)OCN3C(=O)c4ccccc4C3=O)cc12,.,0.9,6%,-7,11,Arbovirus inh repeat=-4
CCOc1ccc(C(F)(F)F)cc1NC(=O)c1ccc(OC)c([N+](=O)[O-])c1,-38,-0.4,1%,-1,10,
c1cnc2c(C3NCCc4c3[nH]c3ccccc43)cccc2c1 (stereo not given),.,-0.5,-4%,-7,-2,
O=C(NCCN1CCOCC1)c1cccc(S(=O)(=O)N2CCCC2)c1,.,-2.9,.,.,2,
COc1ccc(/C=N/OCC(=O)N=Nc2c(O)[nH]c3ccc(Br)cc23)cc1,.,1.2,9%,-16,-1,
O=C(O)c1ccccc1-c1ccccc1C(=O)NCc1cccnc1,.,-0.4,-11%,5,-5,
N=c1sccn1Cc1ccc(Cl)cc1Cl,-23,-1.4,-5%,2,-3,
O=C(COc1ccccc1)NC1CCSC1=O (stereo not given),.,-3.3,-3%,2,-2,
CC(NC(=O)c1c(Cl)cnn1C)C1CCCO1 (stereo not given),.,0.5,-7%,.,-7,
Oc1ccc2c3c1O[C@H]1[C@@H](O)CC[C@@]4(O)[C@@H](C2)N(CC2CCC2)CC[C@]314,.,-1.3,.,.,-3&7,
Cc1c(Cl)cccc1NC(=O)CCCn1cnc([N+](=O)[O-])n1,.,1.3,11%,3,-2,
CC(NC(=O)c1ccccc1NC(=O)c1ccco1)C(=O)O (stereo not given),-20,-1.2,2%,2,-7,
CCOC(=O)CC(=O)CSc1[nH]c(=O)cc(C)c1C#N,-18,0.1,-7%,-4,-8,
O=[N+]([O-])c1ccc(N2CCN(c3ccc([N+](=O)[O-])cc3CO)CC2)c(CO)c1,.,-5.5,.,.,-1,
C/C(=N\N=C1\NC(=O)C(CC(=O)Nc2ccc(Cl)cc2)S1)c1ccco1 (stereo not given),.,0.1,79%,17,46,
Cc1ccc(C(=O)CSc2nnc(-c3ccccc3)n2-c2ccccc2)o1,7,-0.5,0%,-5,1,
